Screens: PubChem BioAssay, Center for Chemical Genomics, University of Michigan
CDC25B-CDK2 inh = human CDC25B-CDK2/CyclinA binding inhibition. hit rate 0.72% among 94,000. HTRF CDC25B-CDK2/CyclinA binding, anti-His/anti-Flag; stronger effect = higher value. P30305+P24941. z-score (concentration not given with the values);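 further: score is relative to mean and SD of negative controls; strong numbers were not always called active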
HIV TAR-Tat = HIV-1 TAR-Tat binding disruption; hit rate 0.6% among 100,000; HIV-1 TAR RNA, Tat peptide displacement FRET; stronger effect = higher value; z-score (no concentration beside the values);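 further: score is relative to mean and SD of negative controls; some compounds called inactive have numbers as strong as hits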
* = called active by the depositor; nt = not tested or not shown.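 How the source made its calls: active means z-score from 3 up in half or more of its runs; inactive means the rest.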 Hits appear at their usual frequency; overall some 0.94% were active at least once.

SMILES	CDC25B-CDK2 inh	HIV TAR-Tat
Cc1ccc2cccc(OS(=O)(=O)c3cc([N+](=O)[O-])ccc3C)c2n1	-1.56	nt
COc1cc(NS(=O)(=O)c2ccc(-n3cccn3)cc2)cc(OC)c1	nt	0.32
CN(Cc1ccco1)C(=O)Cn1cnc(S(=O)(=O)N2CCOCC2)c1	nt	-0.49
O=C(COc1ccccc1)Nc1ccc(O)c(-c2nc3ccccc3o2)c1	-2.89	nt
CCN(CC(O)Cn1c2ccccc2c2ccccc21)S(=O)(=O)c1ccc(C)cc1 (centres undefined)	-1.09	-0.11
COc1cc(C)ccc1OCCSc1nc(-c2ccc(F)cc2)nc2cc(=O)[nH]n12	nt	-0.39
Cn1cccc1Cc1nnc(SCC(=O)Nc2nc3ccccc3s2)n1C	-0.4	-1.29
CCN(CC)S(=O)(=O)c1ccc2c(c1)N(Cc1cc(C)ccc1C)C(=O)CS2	nt	-0.51
CSc1nc2sc3c(c2c(=O)n1-c1ccc(F)c(Cl)c1)CCN(C(C)=O)C3	2.47	1.02
CN1CCN(C(=O)CCC(=O)O)CC1	-2.99	1.51
CCc1ccc(N2C(=O)C3N=NN(Cc4ccc(C)cc4)C3C2=O)cc1 (centres undefined)	-0.1	-0.64
O=C(/C=C/c1ccc(Cl)cc1)Nc1cccc(Cl)c1	0.44	nt
COC(OC)c1ccc2c(N)c(C(=O)c3ccc(Cl)cc3)sc2n1	0.03	nt
CCOC(=O)c1c(C)oc2nc(C)nc(NCCCN3CCCCC3C)c12 (centres undefined)	nt	1.15
Cc1ccc2[nH]c(C)c(CN3CC4(C)CC3CC(C)(C)C4)c(=O)c2c1 (centres undefined)	-0.28	nt
COc1cc(/C=C/C(=O)c2ccc(O)cc2O)ccc1O	nt	3.1
NC1(C(=O)O)CCCCC1	-1.73	nt
O=C(CN1C(=O)c2ccccc2S1(=O)=O)Nc1ccccc1C(=O)NCC1CCCO1 (centres undefined)	-1.09	1.12
Cc1ccc(C)c(S(=O)(=O)N(CCS(=O)(=O)N2CCNCC2)C2CCCCC2)c1	nt	2.61
CCCCNc1ncnc2c1cnn2-c1ccc(Cl)cc1	nt	3.54
Brc1ccc2c(c1)CN(Cc1ccccc1)CO2	-1.53	1.19
CN(C)CCN(Cc1cccs1)C(=O)C1CCC(=O)N1S(=O)(=O)c1ccccc1 (centres undefined)	nt	1.71
Cc1ccc(OS(=O)(=O)c2c(C)nn(C)c2Cl)c(C)c1	-0.01	nt
O=C(Cn1cc(S(=O)(=O)N2CCCC2)c(S(=O)(=O)N2CCCC2)c1)N1CCOCC1	nt	0.65
CCCCN1C(=O)c2[nH]nc(-c3ccccc3O)c2C1c1ccc(SC)cc1 (centres undefined)	2.15	0.5
O=C(c1ccc(-c2ccccc2)s1)N1CC=C(c2ccccc2)CC1	-1.43	nt
O=c1oc(C(O)(c2ccccc2)c2ccccc2)nc2ccccc12	-2.1	nt
CCn1cc(/C=C/c2nc3ccccc3c(=O)[nH]2)c2ccccc21	-3.57	-6.62
OC(COc1ccc(F)cc1)Cn1c(Cc2ccccc2)nc2ccccc21 (centres undefined)	-1.39	-0.41
O=C(c1cc2ccccc2oc1=O)N(c1ccc(Cl)cc1)C1C=CS(=O)(=O)C1 (centres undefined)	-0.99	nt
NS(=O)(=O)c1ccc2nc(NC(=O)c3ccc(S(=O)(=O)N4CCOCC4)cc3)sc2c1	-1.56	nt
CC1=C(C(=O)OCC2CCCO2)C(c2cccs2)C2=C(CC(c3cccs3)CC2=O)N1 (centres undefined)	-0.67	-0.02
Cc1cccc(N2C(=O)N(c3ccccc3)C3CS(=O)(=O)CC32)c1C (centres undefined)	-0.83	-1.18
O/N=C1/c2ccccc2CCC1Cn1ccnc1 (centres undefined)	-1.24	nt
Cc1cc(C)n(-c2nc3c(c(=O)n2CC(=O)Nc2ccc4c(c2)OCO4)CCCC3)n1	nt	0.28
CNc1n[nH]c(N)c1-c1nc(-c2ccc(C)cc2)no1	0.49	0.42
CCOCCCNc1ncnc2onc(-c3ccc(F)cc3)c12	nt	1.47
Cc1ccc(OCC(O)CN2C(C)CCCC2C)c(C)c1 (centres undefined)	-3.53	nt
COCCCn1c(SC2CCOC2=O)nc2c(sc3ccccc32)c1=O (centres undefined)	-3.05	nt
Cc1cc2oc3c(c(=O)c2cc1C)C(c1ccccc1)N(CCCN(C)C)C3=O (centres undefined)	-1.93	0.83
Cn1ncc2c(=O)n(CC(=O)c3ccc(F)cc3)cnc21	-1.6	-2.17
O=C(Nc1nnc(/C=C/c2ccccc2Cl)s1)Nc1ccc(Cl)cc1Cl	-1.47	nt
OCCNc1nc(Nc2ccc(Cl)cc2)nc(N2CCOCC2)n1	nt	1.9
N#CC(C1CC=CCC1)N1CCOCC1 (centres undefined)	-1.22	nt
CCCc1nc(N)c(C#N)c(-c2ccc(Cl)cc2)c1CC	-3.14	0.85
Cn1c(C(=O)Nc2ccc(F)cc2F)c(N2CCCC2=O)c2cc(F)ccc21	nt	0.77
O=S(=O)(NCc1ccco1)c1ccc(-n2cccn2)cc1	nt	0.61
COC(=O)c1ccc(OC(=O)c2ccncc2)cc1OC(=O)c1ccncc1	-0.34	nt
CCn1c(=O)oc2cc(NS(=O)(=O)c3ccc(OC)cc3)ccc21	nt	-0.19
Cc1ccccc1CSc1nnc(-c2ccccc2)c(=O)[nH]1	-2.38	-0.04
CCCCCSc1nc2n(n1)C(c1cccs1)C1=C(CCCC1=O)N2 (centres undefined)	-2.98	nt
Cc1ccc(Nc2c3c(nc4ncnn24)CCCC3)cc1C	nt	-0.01
Cc1nn(C)c(C)c1CNC(=O)C1CCCN(c2nnc(N3CCCC3=O)s2)C1 (centres undefined)	nt	1.69
COc1ccc(Oc2coc3cc(OC(=O)CCc4ccccc4)ccc3c2=O)cc1	-0.92	0.79
O=C1CCc2cc(S(=O)(=O)Nc3ccc(Cl)c(C(F)(F)F)c3)ccc2N1	0.13	nt
CC(C)OCCCNC(=O)C1CCCN(c2nn3c(=O)c4c(nc3s2)CCCC4)C1 (centres undefined)	nt	2.16
O=C(COCc1cc(-c2ccco2)on1)NC1CCCCC1	nt	0.28
OC1(C(F)(F)F)CC(/C=C/c2ccc3c(c2)OCO3)=NN1 (centres undefined)	1.69	nt
CCOC(=O)C1CCN(C(=O)CCCN2C(=O)CCn3nc(C)cc32)CC1	nt	1.34
COc1ccc(-c2cc3c(=O)oc4ccccc4c3[nH]2)cc1	-0.99	nt
Next entries follow:
SMILES	CDC25B-CDK2 inh	HIV TAR-Tat
COc1cc(OC)c(NC(=O)C2CCCN(c3ncnc4c3nc3n4CCCCC3)C2)cc1Cl (centres undefined)	nt	1.65
CCC[C@@H]1C[C@@H](C(=O)N[C@H]([C@H]2O[C@H](SC)[C@H](O)[C@@H](O)[C@H]2O)[C@H](C)O)N(C)C1	nt	0.33
Cc1ccc(CSC2=NS(=O)(=O)c3ccc(C)cc3N2)cc1	nt	-0.06
CCOCCCNC(=O)Cn1nc(C)n2c(cc3occc32)c1=O	-0.12	2.64
Cc1c(C(=O)NCCC2=CCCCC2)oc2ccc(S(=O)(=O)N3CCCC3)cc12	-1.49	2.34
Cc1ccc2[nH]c(CSc3nnc(C)s3)cc(=O)c2c1	nt	-0.96
CCOC(=O)C1CCN(c2csc3ccc(Cl)cc3c2=O)CC1	nt	0.7
COc1ccc(Cl)cc1NS(=O)(=O)c1ccc(-c2cc(C)[nH]n2)s1	nt	-1.39
COc1ccc(-n2cc(C(=O)Nc3ccc(OC)cc3OC)nn2)cc1	-1.24	0.79
CCc1ccc(S(=O)(=O)c2nnn(-c3ccc(C(C)C)cc3)c2N)cc1	-1.53	-0.59
COc1ccc(C2CC(=O)C3=C(C2)Nc2ccccc2NC3c2cccc(O)c2)cc1 (centres undefined)	1.08	4.19
COCc1nn2cc(-c3ccc(F)cc3)nc2s1	-2.16	2.15
COc1ccc(C2C(C#N)=C(N)Oc3c2c(=O)[nH]c2ccccc32)cc1OC (centres undefined)	-0.52	nt
CSc1nc2n(n1)C(c1ccc(Br)cc1)C1=C(CCCC1=O)N2 (centres undefined)	nt	1.88
CCOC(=O)C1=C(C)Nc2sc(C(=O)c3ccc(C)cc3)c(N)c2C1c1ccc(C(=O)OC)cc1 (centres undefined)	1.24	0.47
Cc1sc(-n2cccc2)c(C(C)NC(=O)Nc2cccc3c2CCCC3)c1C (centres undefined)	-1.53	0.58
COCCCNC1=C(C#N)C(=O)NC(c2cccs2)S1 (centres undefined)	-1.94	nt
COC(=O)c1c(NC(=O)c2nn(-c3ccc(F)cc3)ccc2=O)sc2c1CCC2	-0.32	0.17
COc1cc(-c2nc3sccn3c2Nc2ccc(OC)c(OC)c2)ccc1O	1.18	-1.37
COc1ccc(Cn2c(CO)cnc2SCc2ccc(F)cc2)cc1	nt	1.67
O=C(Nc1ccc(F)cc1)c1ccccc1N=Cc1ccccc1O	-2.07	nt
Cc1cc(=O)n2nc(N3CCC(C(=O)NCCN4CCOCC4)CC3)sc2n1	-0.1	1.01
Nc1nc(N2CCN(Cc3ccccc3)CC2)nc(N2CCCCC2)c1[N+](=O)[O-]	nt	10.9
CCCn1c(Cn2ccnc2C)nc2cc(NC(=O)C3CCCCC3)ccc21	0.02	-0.62
Cc1ccc(-c2cc3ccccc3[nH]2)cc1	-0.18	0.56
CCOc1ccc(Br)cc1S(=O)(=O)NCc1ccc2c(c1)OCO2	-0.24	-0.11
O=c1c(N=Nc2n[nH]c3nnc(-c4ccccc4)c(-c4ccccc4)c23)c(O)nc2ccccn12	-0.51	nt
O=C(CSc1ncnc2c1oc1ccccc12)N1CCN(c2ccccc2)CC1	-0.38	nt
CC1(C)Cc2c(sc3ncn4nc(-c5ccccc5O)nc4c23)C(C)(C)N1	-0.89	-0.78
Cc1cc2oc(C(=O)N(Cc3ccc(F)cc3)C3CCS(=O)(=O)C3)cc(=O)c2cc1C (centres undefined)	-0.86	0.56
CN(/C=C/C(=C/C=[N+](C)c1ccccc1)OCCCS(=O)(=O)[O-])c1ccccc1	1.84	nt
COc1ccccc1N1CCN(Cc2cc(COC(C)C)c3cccnc3c2O)CC1	3.46	1.44
O=C(NCCc1ccc(Cl)cc1)c1cnc2sc(N3CCCC3)nn2c1=O	nt	0.32
Cc1ccc(C(=O)NC(=O)c2ccccc2O)cc1	1.9	nt
COc1ccc(CCNS(=O)(=O)c2ccc3c(c2)OCCO3)cc1	-1.04	nt
CC1C(=O)N2CCCc3cc(S(=O)(=O)Nc4ccc(Br)cc4F)cc1c32 (centres undefined)	nt	0.79

Compounds above containing a nitro group on carbon, in the order listed:
SMILES	CDC25B-CDK2 inh	HIV TAR-Tat
Cc1ccc2cccc(OS(=O)(=O)c3cc([N+](=O)[O-])ccc3C)c2n1	-1.56	nt
Nc1nc(N2CCN(Cc3ccccc3)CC2)nc(N2CCCCC2)c1[N+](=O)[O-]	nt	10.9

Additional results:
SMILES	CDC25B-CDK2 inh	HIV TAR-Tat
CCSCCOC(=O)C1=C(C)NC2=C(C(=O)CC(c3cccs3)C2)C1c1ccsc1 (centres undefined)	-3.46	-0.38
Clc1ccc(-n2ncnc2-c2ccc(Br)cc2)cc1	-1.24	1.41
COC(=O)C1=C(C)Nc2nc3ccccc3n2C1c1ccccc1C (centres undefined)	-1.06	1.23
O=S1(=O)c2ccccc2NC(c2cccc3ccccc23)N1Cc1ccccc1 (centres undefined)	0.81	0.01
CN(CC(=O)N1CCCC1)S(=O)(=O)c1ccc2[nH]c3c(c2c1)CCCC3	nt	0.46
CC1CCCN(c2ncnc3c2cnn3-c2cccc(Cl)c2)C1 (centres undefined)	nt	2.3
Cc1ccccc1CN1N=NC2C(=O)N(c3ccc(F)c(F)c3)C(=O)C21 (centres undefined)	1.12	0.44
CCCn1c(SCc2nc(-c3ccccc3)no2)nc2cc3c(cc2c1=O)OCO3	nt	1.01
CCOC(=O)CC1(NC(=O)N2CCN(S(=O)(=O)c3ccc4c(ccn4C)c3)CC2)CCCCC1	nt	0.83
CCC(CO)NC(=O)C(=O)Nc1c2c(nn1-c1ccc(F)cc1)CSC2 (centres undefined)	nt	0.97
CCCc1c(C)nc2ncnn2c1Nc1cc(C)cc(C)c1	-1.61	-0.47
CC(C)(C)C1CCC(=O)C(C2(O)C(=O)Nc3ccccc32)C1 (centres undefined)	0.08	nt
CSc1ccccc1NC(=O)c1ccccn1	nt	1.35
CC(=O)N1CCc2cc(Br)cc(S(=O)(=O)N3CCN(c4ccccc4)CC3)c21	-0.23	nt
O=S(=O)(c1ccc2nc(NCCCc3ccccc3)ccc2c1)N1CCCC1	nt	1.34
Cc1cc(NC(=O)c2ccno2)no1	-2.16	nt
COc1ccc(C2=NOC(C(=O)NC3CCCC3)C2)cc1OC (centres undefined)	0.47	-0.26
CC(C)CSc1ncnc2c1sc1nc3c(cc12)COC(C)(C)C3	-0.03	-0.55

By substructure, the entries above containing an NH in an aromatic ring.
SMILES	CDC25B-CDK2 inh	HIV TAR-Tat
COc1cc(C)ccc1OCCSc1nc(-c2ccc(F)cc2)nc2cc(=O)[nH]n12	nt	-0.39
Cc1ccc2[nH]c(C)c(CN3CC4(C)CC3CC(C)(C)C4)c(=O)c2c1 (centres undefined)	-0.28	nt
CCCCN1C(=O)c2[nH]nc(-c3ccccc3O)c2C1c1ccc(SC)cc1 (centres undefined)	2.15	0.5
CCn1cc(/C=C/c2nc3ccccc3c(=O)[nH]2)c2ccccc21	-3.57	-6.62
CNc1n[nH]c(N)c1-c1nc(-c2ccc(C)cc2)no1	0.49	0.42
Cc1ccccc1CSc1nnc(-c2ccccc2)c(=O)[nH]1	-2.38	-0.04
COc1ccc(-c2cc3c(=O)oc4ccccc4c3[nH]2)cc1	-0.99	nt
Cc1ccc2[nH]c(CSc3nnc(C)s3)cc(=O)c2c1	nt	-0.96
COc1ccc(Cl)cc1NS(=O)(=O)c1ccc(-c2cc(C)[nH]n2)s1	nt	-1.39
COc1ccc(C2C(C#N)=C(N)Oc3c2c(=O)[nH]c2ccccc32)cc1OC (centres undefined)	-0.52	nt
Cc1ccc(-c2cc3ccccc3[nH]2)cc1	-0.18	0.56
O=c1c(N=Nc2n[nH]c3nnc(-c4ccccc4)c(-c4ccccc4)c23)c(O)nc2ccccn12	-0.51	nt
CN(CC(=O)N1CCCC1)S(=O)(=O)c1ccc2[nH]c3c(c2c1)CCCC3	nt	0.46
